# YopH inh = YopH (Yersinia) phosphatase inhibition | fluorescence Ex485/Em525 | inhibition, %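 (about 10 µM by stock and volumes)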 | actives 0.16% (n = 140,000);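 active = inhibition of 50% or more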;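 note: controls were vehicle for no effect and minimum signal wells for full effect; inactives centre near -20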
# Mtb H37Rv = M. tuberculosis H37Rv growth inhibitors, H37Rv strain (AID 1626). M. tuberculosis H37Rv growth inhibition; higher % means a stronger effect. actives 0.95% (n = 220,000). one-dose inhibition, % at 10 µM; IC50 in µM for titrated hits;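 active = confirmed in a dose series; inconclusive = inhibition above 80% but not taken into the dose series; inactive = below 80% or under 30% at every dose of the series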;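 note: bacteria incubated seven days before Alamar blue readout; 0% = bacteria only wells and 100% = bacteria with antibiotic wells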
# Mtb bLac sens = beta-lactam sensitization of Mtb H37Rv; inhibition, % at 25 µM; M. tuberculosis H37Rv growth with meropenem, percent inhibition; hits of this screen are not shown here; actives 0.27% (n = 330,000);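 active = about 74% or more and at least 40 points above the plate without the antibiotic, then above 30% in a dose series; inconclusive = first-round hits that could not be retested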;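 note: growth measured after seven days incubation then overnight dye step; 0% = bacteria only wells and 100% = bacteria with antibiotic; twin plates without the antibiotic show which effects depend on it; some results filed as inactive read as strong as hits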
# Arbovirus anti = arbovirus infection inhibition. inhibition, % at 10 µM. arbovirus infection cell-based antiviral screen. actives 0.37% (n = 200,000);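 active = inhibition from about 30%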;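 note: bluetongue infection of BSR cells; cell survival read as ATP light after 72 h; 0% = infected wells without compound and 100% = uninfected wells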
# RecA intein inh = blocks M. tuberculosis RecA intein splicing; P9WHJ3; cell-free RecA intein splicing, fluorescence; inhibition, %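 (about 9 µM by stock and volumes)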; actives 0.75% (n = 290,000); in the data active = inhibition above about 30%; inconclusive = no clear call, values can overlap the other calls;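 note: 0% = vehicle wells and 100% = reference inhibitor control wells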
# Target sequence (P9WHJ3 whole entry, looked up): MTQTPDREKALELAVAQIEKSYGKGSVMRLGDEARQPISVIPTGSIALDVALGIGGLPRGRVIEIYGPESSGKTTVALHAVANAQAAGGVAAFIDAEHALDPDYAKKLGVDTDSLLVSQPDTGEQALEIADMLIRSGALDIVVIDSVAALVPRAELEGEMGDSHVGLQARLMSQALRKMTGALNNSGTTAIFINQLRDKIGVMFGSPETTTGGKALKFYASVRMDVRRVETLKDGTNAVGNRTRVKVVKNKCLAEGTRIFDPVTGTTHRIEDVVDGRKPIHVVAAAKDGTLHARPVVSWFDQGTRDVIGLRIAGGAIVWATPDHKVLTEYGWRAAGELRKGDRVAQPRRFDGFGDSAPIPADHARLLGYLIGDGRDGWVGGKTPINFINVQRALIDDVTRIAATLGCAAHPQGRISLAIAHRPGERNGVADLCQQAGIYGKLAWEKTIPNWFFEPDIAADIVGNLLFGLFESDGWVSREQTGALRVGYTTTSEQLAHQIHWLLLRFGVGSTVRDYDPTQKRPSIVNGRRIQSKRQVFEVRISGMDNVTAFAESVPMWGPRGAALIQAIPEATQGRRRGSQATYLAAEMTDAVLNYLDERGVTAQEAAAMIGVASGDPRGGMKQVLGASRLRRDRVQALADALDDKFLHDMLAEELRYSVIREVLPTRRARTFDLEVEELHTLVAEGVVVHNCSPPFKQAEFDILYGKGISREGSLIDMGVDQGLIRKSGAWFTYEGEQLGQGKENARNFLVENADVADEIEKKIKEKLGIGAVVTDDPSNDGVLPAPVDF
# * = called active by the depositor; u = inconclusive; x = no result given. Only part of the results is shown; count on the stated rates, not on these rows.
# Each structure is followed by: YopH inh	Mtb H37Rv	Mtb bLac sens	Arbovirus anti	RecA intein inh
- O=C(c1ccccc1Cc1ccccc1)N1CCN(S(=O)(=O)c2ccc(F)cc2)CC1
→ x	x	6	x	1.0
- CCOCCCNC(=O)COC(=O)/C=C/c1ccc(S(=O)(=O)N2CCc3ccccc32)cc1
→ x	-3%	0	-1	0.8
- CCOc1ccccc1NC(=O)CSc1nc2c(c(=O)n(C)c(=O)n2C)n1C
→ x	x	-1	x	-0.4
- Cc1cccc(C)c1OCC(=O)Nc1oc(-c2ccccc2)c(-c2ccccc2)c1C#N
→ -16	8%	26	x	8.5
- O=C1CC(c2ccccc2)CC(=NCCO)/C1=C(\O)CCCN1C(=O)c2ccccc2C1=O (configuration not stated)
→ x	1%	2	-2	1.1
- Cc1cccc(S(=O)Cc2ccc(C(=O)N3CCN(C(=O)c4ccco4)CC3)o2)c1 (configuration not stated)
→ x	x	-2	x	1.3
- Cc1ccc(-c2nc(-c3ccccn3)sc2CC(=O)O)cc1
→ x	-6%	-6	x	-2.0
- O=C(CCN1C(=O)/C(=C/c2ccc(F)cc2)SC1=S)NNC(=O)c1ccncc1
→ x	-15%	4	-2	-5.3
- COC(=O)C(NC(C)=O)(Nc1ccccc1)C(=O)OC
→ -6	4%	-6	2	-0.5
- COCCn1c(=NC(=O)CCS(=O)(=O)c2ccccc2)sc2ccccc21
→ x	x	u	x	-3.9
- Cc1ccc(CN(Cc2ccco2)C(=S)NCC(=O)NC2CC2)cc1
→ x	6%	6	8	2.2
- COc1ccc(C(=O)NCCC(=O)N2CCC3(CC2)NCCc2[nH]cnc23)cc1
→ x	x	1	x	-0.6
- COc1ccc(-c2nc3cc(C)ccn3c2NC(=O)c2c(F)cccc2Cl)cc1
→ x	x	4	x	-2.3
- Fc1ccccc1COc1cccc2cccnc12
→ x	x	-4	x	0.3
- COc1ccccc1CNCc1ccc(OC)c2ccccc12
→ x	x	2	x	1.9
- CCOP(=O)(OCC)C(C#N)=C1SCN(c2ccc(Cl)cc2)CS1
→ -24	14%	6	-3	2.1
- CCOC(=O)c1c(S(=O)(=O)Nc2ccc(C)c(F)c2)c(C)n(C)c1C
→ x	x	0	x	-2.3
- CC(C)[C@H](NC(=O)c1ccco1)C(=O)OCc1cc(=O)n2c(n1)sc1ccccc12
→ x	32%	-8	4	2.8
- COC(=O)c1c(NC(=O)COC(=O)c2ccc(Cl)cc2[N+](=O)[O-])sc2c1CCCCC2
→ -21	0%	12	-13	0.5
- CNS(=O)(=O)c1cc(S(=O)(=O)NC)c2cccc3c2c1NC3=O
→ x	x	5	x	-17
- COc1cccc(Nc2nc(-c3sc(C)nc3C)cs2)c1
→ x	x	13	x	2.6
- CN(CC(=O)Nc1ccc(F)c(F)c1F)C(=O)C1CCC1
→ x	x	-7	x	-2.6
- COc1ccc(-n2c(=S)[nH]c3cc(C(=O)NCCCN4CCOCC4)ccc3c2=O)cc1OC
→ x	x	0	x	-0.7
- Cc1ccccc1S(=O)(=O)Cc1ccc(C(=O)NCCCOC(C)C)o1
→ -6	-18%	3	8	-1.1
- COC(=O)c1ccccc1Oc1nc(Cl)cc(OC)n1
→ -18	3%	-14	-7	-2.9
- Cc1cc(/C=N/NC(=O)c2cc3ccccc3o2)c(C)n1C
→ x	x	14	x	-1.8
- CC1CCCCN1C(=O)c1cc(-c2ccc3c(c2)OCO3)on1 (configuration not stated)
→ x	x	9	x	-1.1
- O=C(c1ccc(NS(=O)(=O)c2ccc3c(c2)OCCO3)cc1)N1CCCCC1
→ x	-8%	-5	x	-1.5
- Clc1ccc(-c2csc3ncnc(NCCN4CCOCC4)c23)cc1
→ 13	3%	6	4	1.1
- CCC(Sc1nc2ccccc2o1)C(=O)Nc1nnc(C)s1 (configuration not stated)
→ -24	u	97	-4	2.3
- O=C1C(Cc2ccccc2)Nc2ncnc(N3CCN(c4ccccc4)CC3)c2N1Cc1ccccc1 (configuration not stated)
→ x	x	14	x	6.7
- O=C(NC1CCCCC1)C(c1ccco1)N(Cc1cccnc1)C(=O)C1COc2ccccc2O1 (configuration not stated)
→ 4	-6%	-11	1	1.7
- COc1cc2c(cc1NC(=O)COC(=O)Cn1cnc3ccccc31)oc1ccccc12
→ -37	x	x	-8	5.2
- Cc1cc(Cl)c2oc(C(=O)N3CCN(C4CCS(=O)(=O)C4)CC3)c(C)c2c1 (configuration not stated)
→ x	x	0	x	-1.2
- COc1cccc(C2C3=C(Nc4[nH]n(-c5ccccc5)c(=O)c42)c2ccccc2C3=O)c1 (configuration not stated)
→ 5	3%	-1	26	x
- CC(C)NCC(O)c1ccc(C2CCCC2)cc1 (configuration not stated)
→ -23	0%	3	-21	-3.1
- Cc1cc(C)c(S(N)(=O)=O)c(C)c1N(C)S(=O)(=O)c1ccccc1
→ x	-1%	-4	2	1.2
- CN(CC(=O)Nc1cccc(F)c1)C(=O)CN1C(=O)C2CC=CCC2C1=O (configuration not stated)
→ x	x	0	x	-0.4
- CC(C)(C)OC(=O)CNC(=O)c1nc[nH]c1C(=O)N1CCN(C(=O)OC(C)(C)C)CC1
→ x	x	-6	x	-0.4
- CC(=O)Nc1ccc2nc(SCC(=O)Nc3ccc(N4CCOCC4)c(Cl)c3)sc2c1
→ -15	-9%	-4	5	2.3
- Cc1c(CCO)c(=O)n(-c2ccccc2)n1S(=O)(=O)c1ccc(Cl)cc1
→ -16	-2%	-6	0	4.7
- CCO/C=C/C(O)(CNC(=O)c1ccc(C(C)(C)C)cc1)C(F)(F)F (configuration not stated)
→ -21	10%	-8	-8	1.4
- O=C(NCCCCNC(=O)c1ccccc1Cl)c1ccccc1Cl
→ x	x	-1	x	1.1
- O=Cc1cccnc1SCc1ccccc1
→ x	x	-8	x	3.2
- CC(=O)c1c(N2CCOCC2)nc(=S)n(-c2cc(C)ccc2C)c1C
→ 14	-4%	9	-2	-1.7
- C=CCN(CC=C)C(=O)Nc1cc(Cl)ccc1OC
→ 8	0%	-3	-1	3.2
- COCCCNC(=O)c1sc2ncn(CC(=O)Nc3ccc(C)c(Cl)c3)c(=O)c2c1C
→ x	-5%	-2	-3	-1.3
- COC(CNC(=O)c1ccc2c(c1)ncn2-c1ccc(F)cc1F)OC
→ x	1%	-6	2	-0.5
- Cc1ccccc1C(=O)Nc1cccc(C#N)c1
→ 29	-5%	-4	-2	1.0
- Clc1ccc(SCCOCCN2CCCCC2)cc1
→ -21	-1%	8	-29	-2.3
- Cc1ccc(N2CC(C(=O)N3CCCCC3)CC2=O)cc1C (configuration not stated)
→ x	x	-6	x	2.2
- COC(=O)c1ccccc1NC(=O)C1CC(=O)N(C2CCCCC2)C1 (configuration not stated)
→ -21	-4%	-4	8	-0.6
- O=C1CC(c2ccncc2)c2cc3c(cc2N1)OCCO3 (configuration not stated)
→ -3	2%	-1	3	-4.2
- Cc1sc2ncn(CC(=O)NCC(=O)N3CCC4(CC3)OCCO4)c(=O)c2c1C
→ -9	1%	-11	13	-1.1
- NC(N)=NS(=O)(=O)c1ccc(N/C=C\C(=O)c2ccncc2)cc1
→ x	-1%	-6	1	-2.2
- CC(=O)c1ccc(NC(=O)CN2C(=O)/C(=C/C(C)=C/c3ccccc3)SC2=S)cc1
→ -22	-7%	x	16	x
- COc1cccc(/C=N/n2c(-c3n[nH]c4c3CCC4)n[nH]c2=S)c1OC
→ x	-3%	0	x	x
- Cc1ccc(C)c(N2CCN(CCCNC(=O)CCC(=O)N3CCOc4ccc(Cl)cc43)CC2)c1
→ x	x	91	x	-2.5
- Cc1c(Cl)c(-c2n[nH]c(=S)n2CC(C)C)nn1C
→ -24	-4%	-3	10	0.0
- COc1ccc(-c2csc(Cc3nc(O)cs3)n2)cc1
→ x	9%	6	-2	9.0

# Structures from the list above that contain a thiophene ring, fused or not:
# Each structure is followed by: YopH inh	Mtb H37Rv	Mtb bLac sens	Arbovirus anti	RecA intein inh
- COC(=O)c1c(NC(=O)COC(=O)c2ccc(Cl)cc2[N+](=O)[O-])sc2c1CCCCC2
→ -21	0%	12	-13	0.5
- Clc1ccc(-c2csc3ncnc(NCCN4CCOCC4)c23)cc1
→ 13	3%	6	4	1.1
- COCCCNC(=O)c1sc2ncn(CC(=O)Nc3ccc(C)c(Cl)c3)c(=O)c2c1C
→ x	-5%	-2	-3	-1.3
- Cc1sc2ncn(CC(=O)NCC(=O)N3CCC4(CC3)OCCO4)c(=O)c2c1C
→ -9	1%	-11	13	-1.1

# Next part:
# Each structure is followed by: YopH inh	Mtb H37Rv	Mtb bLac sens	Arbovirus anti	RecA intein inh
- COc1cccc(-c2nc(Oc3cccc(C)c3C)c3ccccc3n2)c1O
→ -24	-8%	-5	6	-0.7
- CC(C(=O)NCc1ccccc1Cl)N1C(=O)c2ccccc2C1=O (configuration not stated)
→ x	x	-8	x	-1.2
- COc1ccccc1Oc1ccc(S(=O)(=O)N2CCCCC2C)cc1 (configuration not stated)
→ x	x	-4	x	5.3
- COc1ccc(S(=O)(=O)N2CCCC(C(=O)NCc3ccccc3)C2)cc1 (configuration not stated)
→ x	x	-1	x	-3.0
- Cc1cc(NC(=O)CN2CC(C)OC(C)C2)n(-c2nc3ccccc3s2)n1 (configuration not stated)
→ -16	-5%	72	8	1.5
- COc1ccc(CCNC(=O)c2ccc(NC(=O)CC3SC(N4CCCC4)=NC3=O)cc2)cc1 (configuration not stated)
→ x	x	-8	x	-3.3
- CCCCn1c(N)c(N(CC(C)C)C(=O)C2CCN(S(=O)(=O)c3ccc(C)cc3C)CC2)c(=O)[nH]c1=O
→ x	x	-14	x	-0.8
- CCCCn1c(N)c(N(CC(C)C)C(=O)c2ccc(S(=O)(=O)N3CCCCCC3)cc2)c(=O)[nH]c1=O
→ x	x	-9	x	-0.7
- CN(C)C1(CN=Cc2cc(Cl)cc([N+](=O)[O-])c2O)CCCCC1
→ x	x	1	x	7.7
- CC(=O)c1ccc(NC(=O)CSc2nc3[nH]ncc3c(=O)[nH]2)cc1
→ x	x	26	x	-0.4
- COc1cc(/C=N\NC(=O)C2COc3ccccc3O2)cc(OC)c1O (configuration not stated)
→ x	1%	-1	x	-1.0
- O/N=C1/C(=C\c2ccccc2)N2CCC1CC2
→ -10	-4%	16	1	3.3

# Among those listed so far, these contain an aryl thioether with sulfur outside any ring.
# Each structure is followed by: YopH inh	Mtb H37Rv	Mtb bLac sens	Arbovirus anti	RecA intein inh
- CCOc1ccccc1NC(=O)CSc1nc2c(c(=O)n(C)c(=O)n2C)n1C
→ x	x	-1	x	-0.4
- CCC(Sc1nc2ccccc2o1)C(=O)Nc1nnc(C)s1 (configuration not stated)
→ -24	u	97	-4	2.3
- CC(=O)Nc1ccc2nc(SCC(=O)Nc3ccc(N4CCOCC4)c(Cl)c3)sc2c1
→ -15	-9%	-4	5	2.3
- O=Cc1cccnc1SCc1ccccc1
→ x	x	-8	x	3.2
- Clc1ccc(SCCOCCN2CCCCC2)cc1
→ -21	-1%	8	-29	-2.3
- CC(=O)c1ccc(NC(=O)CSc2nc3[nH]ncc3c(=O)[nH]2)cc1
→ x	x	26	x	-0.4
